Source: PubChem BioAssay (several laboratories)
Autofluor counter: flagged as autofluorescent in microsphere protease counterscreen. compound autofluorescence counterscreen, microsphere flow cytometry; active compounds read high. fluorescence intensity (concentration not given with the values). 360,000 compounds, 3.1% hits. AID 624483;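 active = at least 3 SD above the mean of all compounds, about 16000 in these data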;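 also: 100 nL of 1 mM stock went into each well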
RN4220 kill: growth inhibition of S. aureus RN4220, primary screen, OD600. 16 h. inhibition, % (concentration not given with the values). 330,000 compounds, 0.33% hits. AID 1259311, 2017;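 active = z-score of -3 or lower and OD600 up to 0.18 on both plates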;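 also: plate controls were untreated cells for no effect and reference antibiotic for full effect; stock transfer was 100 nL into about 80 µL; one replicate is shown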
ugtP null kill: growth inhibition of ugtP-null S. aureus, primary screen, RN4220 ugtP deletion, OD600; 16 h; some inactives read as strong as hits; growth inhibition, % (concentration not given with the values); 330,000 compounds, 0.54% hits;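 active = z-score under -3 and OD600 up to 0.15 on both plates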;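 also: plate controls were untreated wells for no effect and antibiotic for full effect; wells of about 80 µL received 100 nL stock; the first replicate is given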
PrP UTR inh: inhibition of PrP 5' UTR reporter expression | cell-based PrP 5' UTR mRNA reporter, plate reader | inhibition, % (test concentration not listed) | 340,000 compounds, 0.35% hits;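 active = every replicate at 50% or more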;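 also: 0 = median of the neutral control wells; tested in H4 reporter cells; numbers are from one replicate; inactives centre near -14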
Mtb hypoxia inh: PubChem AID 1159583; M. tuberculosis hypoxia-regulated fluorescent reporter, fluorescence; fluorescence inhibition, % (no concentration beside the values); 300,000 compounds, 0.1% hits;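 active = 35 to 45% if threefold the growth effect, above 45% if 1.5-fold the growth effect; inactive = the rest, general growth blockers included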;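 also: wells of about 50 µL received 100 nL stock; 0% = vehicle wells and 100% = reference inhibitor wells; whole bacteria with a GFP reporter of the hypoxia response; strong numbers were not always called active; many hits fall short of the cut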
BJeLR viability: MLPCN primary cell-based screen for lethality selective to Ras in HRASV12 cells | inhibition, % (concentration not given with the values) | 300,000 compounds, 0.17% hits | BJeLR (HRASV12) viability, CellTiter-Glo ATP luminescence, 48 h; reference of the scale not given here;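 active = replicate mean above 50%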;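 also: 50 nL library stock added to about 25 µL; numbers are from one replicate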
Mtb hypoxia inh growth: recorded beside Mtb hypoxia inh, whose call it bears; growth inhibition, %; measured here: M. tuberculosis growth (absorbance);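 0% = vehicle and 100% = reference antibiotic; read after six days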
Active calls of the source: *; nt = not tested or not shown.

canonical_smiles,Autofluor counter,RN4220 kill,ugtP null kill,PrP UTR inh,Mtb hypoxia inh,Mtb hypoxia inh growth,BJeLR viability
CN1CCN(CCC(=O)N/N=C/c2cc3c(cc2[N+](=O)[O-])OCO3)CC1,6237,nt,nt,8,nt,nt,-2
COc1ccccc1OCc1ccc(C(=O)NC(C)c2ccccc2)o1 (configuration not stated),2907,2.0,3,-6,-7,-6,1
CCCc1nnc(NC(=O)C(CC)OC(=O)c2cc(C)nc3ccccc23)s1 (configuration not stated),6449,2.5,6,-25,3,13,-4
Cc1cc(-c2ccccc2)nc(NN=Cc2ccco2)n1,nt,8.0,-13,nt,7,3,nt
CCN(CC)CCNC(=O)/C(=C\c1cccn1C)NC(=O)c1cccs1,7780,2.6,2,-17,5,0,1
COc1ccc(NC(=S)NCc2ccc(F)cc2)c(OC)c1,4063,4.1,2,-19,7,-1,2
O=[N+]([O-])c1ccc2[nH]c(O)c(N=NC(=S)NCC3CCCO3)c2c1 (configuration not stated),9872,12,-7,-23,3,3,10
CCOc1ncccc1C(=O)OCC(=O)Nc1cc(C)ccc1C,23113*,-0.7,3,-32,0,-2,-2
O=C(c1cc(COc2ccc3ncccc3c2)on1)N1CCCCCC1,3171,4.3,11,-24,2,9,13
CCCC(C(=O)NC1CCCC1)N(CC1CCCO1)C(=O)c1snc(C(N)=O)c1N (configuration not stated),11083,1.9,0,-4,4,4,11
COc1ccc(C(=O)NCC(=O)NN=C(C)Cc2ccccc2)cc1,nt,-4.6,-5,nt,2,-1,nt
O=C(NNC(=S)NC(=O)c1cccnc1)c1ccc(Cl)cc1,5936,13,4,-12,-7,5,10
Cc1nn(C)c(N)c1C(O)(c1nccn1C)C(F)(F)F (configuration not stated),3795,0.2,2,-16,nt,nt,-2
O=C1CC2(CCN(C(=O)c3ccccc3[N+](=O)[O-])CC2)Oc2ccccc21,5127,4.8,5,-3,3,0,3
Cc1ccc(-c2cc(-c3ccc(C)cc3)[n+](-c3ccccc3)c(-c3ccc(C)cc3)c2)cc1,3778,101*,100*,46,nt,nt,68*
O=C(Nc1sccc1C(=O)N1CCOCC1)c1cccnc1,9453,3.8,-1,-17,3,7,-4
COc1ccc(CCC(=O)OCC(=O)c2c(N)n(CC(C)C)c(=O)n(C)c2=O)cc1,4063,0.5,6,-6,-1,-3,-4
COc1ccc(CCN(Cc2ccccn2)C(=S)Nc2ccccc2Cl)cc1OC,4285,4.8,15,-23,12,1,12
Cc1ccc2[nH]c(=O)cc(C(=O)OCC(=O)c3ccccc3)c2c1,2487,1.4,3,-5,4,1,-6
CCCc1c(C)[nH]c2ccc(NC(C)=O)cc2c1=O,11004,6.1,-1,-16,0,7,-4
O=C(NCc1ccccc1Cl)C1CCN(S(=O)(=O)c2cccs2)CC1,3117,-3.0,6,15,-4,-11,-8
O=C(CN(C(=O)CSc1nc2ccccc2o1)c1ccccc1F)NC1CCCCC1,2542,-1.3,5,-18,7,10,-2
Cc1cc(N(CC(=O)NC(C)C)S(C)(=O)=O)ccc1Br,2299,1.8,1,-1,5,-1,1
COCCN1C(=O)C(O)=C(C(C)=O)C1c1ccc(F)cc1 (configuration not stated),2814,-8.4,-4,-14,15,5,-12
Cc1ccccc1OCC(=O)N/N=C/c1cccc2cccnc12,4178,nt,nt,4,nt,nt,-2
Cn1c(SCC(=O)NCC2CCCO2)nc2c([nH]c3ccccc32)c1=O (configuration not stated),7887,13,15,-8,3,7,-8
CCOc1ccccc1NC(=O)c1cc(=O)[nH]c2ccc(S(=O)(=O)N3CCOCC3)cc12,4049,1.5,-5,-14,3,2,nt
COc1ccc(C(=O)NCC2(c3ccccc3)CCOCC2)cc1,3343,4.2,6,-27,-3,-5,-7
COc1ccc(N2CCN(CCNC(=O)Nc3cccc(C)c3C)CC2)cc1,3561,4.2,14,2,-11,3,-7
Cn1c(SCC(=O)Nc2cccnc2Cl)nnc1-c1ccco1,4052,6.0,5,-13,6,10,nt
OCc1ccc(-c2ccccc2)c(-c2ccccc2)c1,3521,-2.6,89*,nt,11,-2,0
Cc1ccc(S(=O)(=O)Nc2ccncc2)c(C)c1,4040,1.0,18,-37,12,4,6
COCc1c(C(=O)N2CCN(Cc3nc4ccccc4s3)CC2)oc2ccccc12,2958,0.8,4,-6,-1,-2,nt
O=C(NCCc1ccc(Cl)cc1)C1CCN(c2ncccn2)CC1,4331,-3.1,3,-1,-4,0,0
Cc1cc2oc(=O)cc(CSc3nc(N)cc(N)n3)c2cc1C(C)C,2565,2.0,-2,-13,0,5,5
CNC(C)(C)Cc1ccccc1,5447,2.8,-2,-6,-3,-2,nt
CC(C)n1ncc2c(C(=O)O)cc(C3CC3)nc21,4777,4.3,12,-29,0,-9,-17
COc1cc(C2(c3ccc(O)c(OC)c3)C(=O)N(C)c3ccc(C)cc32)ccc1O,4092,4.3,-2,-34,8,-3,-4
Cc1ccc(S(=O)(=O)NCCCCCC(=O)Nc2c(C)n(C)n(-c3ccccc3)c2=O)cc1,4591,-1.7,2,-21,-2,2,6
O=C(CSc1nnc2ccc(-c3ccccn3)nn12)Nc1ccc(F)cc1F,5436,5.1,4,-9,0,3,-5
O=C(CCC(=O)NN=Cc1ccco1)NN=Cc1ccco1,nt,1.8,8,nt,19,15,nt
O=C(NC(=S)NCc1ccccc1)C1CCCCC1,4946,-4.4,27,4,nt,nt,1
Cc1cccc(-c2noc(CN(C)C(=O)c3ccoc3C)n2)c1,5770,6.3,-5,9,3,-5,-15
COc1cc2c(cc1OC)C1Cc3ccc(OC)c(OC)c3CN1CC2 (configuration not stated),3587,2.9,-5,-8,-2,2,0
COc1ccc(C2=NN(C(=O)c3ccncc3)C(c3ccccc3O)C2)cc1 (configuration not stated),7340,1.1,4,-1,10,7,-5
Cc1ccc(CCNC(=O)C23C[C@H]4C[C@@H](C2)CC(n2nnc(C)n2)(C4)C3)cc1,5246,3.6,3,-15,10,0,2
Cc1ccc(S(=O)(=O)N2CCOCC2)cc1NC(=O)COC(=O)c1cc[n+]([O-])cc1,4249,0.2,-1,-24,2,3,nt
Cc1cccc(C)c1NC(=S)Nc1ccccc1C(=O)NCc1ccco1,8338,nt,nt,-25,nt,nt,4
Cc1nnc(NC(=O)c2ccccc2Oc2ccccc2)s1,3435,4.8,-2,-4,17,17,-2
CCCn1c(C)nc2cc(Cl)c(N3CCN(c4nc(-c5ccc(C)cc5)cs4)CC3)cc21,3874,-1.4,1,-22,0,2,-5

Next compounds:
canonical_smiles,Autofluor counter,RN4220 kill,ugtP null kill,PrP UTR inh,Mtb hypoxia inh,Mtb hypoxia inh growth,BJeLR viability
O=C(/C=C/c1ccc(Cl)cc1Cl)NCCN1CCOCC1,3296,nt,nt,-8,nt,nt,5
O=C(NCc1cccnc1)c1ccc(Cn2cc(C(F)(F)F)ccc2=O)cc1,3349,3.7,5,14,4,-2,0
Cc1ccc2oc(=O)c3cc(C(=O)NCCCN4CCCC(C)C4)sc3c2c1 (configuration not stated),6016,-3.1,3,-15,2,12,9
O=c1c(Cl)nc2cc(Cl)ccc2n1CCNc1ncc(C(F)(F)F)cc1Cl,2092,33,96*,0,nt,nt,88*
COc1ccc2nc(C=NNC(=O)[C@H](CCSC)NC(=O)OC(C)(C)C)ccc2c1,nt,1.0,0,nt,-3,1,nt
COc1ccccc1CNC(=O)c1cc(S(=O)(=O)N2CCCC2)cn1C,5576,7.4,5,-24,0,-1,-3
CCCOc1ccc(C2C(C(=O)c3ccc(C)o3)=C(O)C(=O)N2Cc2ccco2)cc1OCC (configuration not stated),5974,12,10,4,5,6,4
CC(CC(=O)NC(C)(C)C)=NNC(=O)c1ccco1,nt,1.4,2,nt,10,1,nt
CCOC(=O)Cc1csc(NC(=O)COC(=O)/C=C/c2ccc(OC)cc2)n1,nt,-1.4,-2,-19,4,-3,nt
Cc1cc(-c2nnc(SCc3cccnc3)o2)no1,7676,5.1,2,-28,1,6,13

An excerpt of these results, with values under each structure:
Value order: Autofluor counter, RN4220 kill, ugtP null kill, PrP UTR inh, Mtb hypoxia inh, Mtb hypoxia inh growth, BJeLR viability
- O=C(/C=C/c1ccc(Cl)cc1Cl)NCCN1CCOCC1
→ 3296, nt, nt, -8, nt, nt, 5
- COc1ccc2nc(C=NNC(=O)[C@H](CCSC)NC(=O)OC(C)(C)C)ccc2c1
→ nt, 1.0, 0, nt, -3, 1, nt
- CCCOc1ccc(C2C(C(=O)c3ccc(C)o3)=C(O)C(=O)N2Cc2ccco2)cc1OCC (configuration not stated)
→ 5974, 12, 10, 4, 5, 6, 4

(more compounds)
canonical_smiles,Autofluor counter,RN4220 kill,ugtP null kill,PrP UTR inh,Mtb hypoxia inh,Mtb hypoxia inh growth,BJeLR viability
Fc1ccc(Sc2ccccc2CNC2=NCCN2)cc1,10141,0.1,1,-23,8,3,9
COC(=O)C(CC(C)C)NC(=O)C(N)Cc1ccccc1 (configuration not stated),3729,-0.2,8,-23,5,9,-2
O=c1cc(CN2CCOCC2)c2cc(Cl)ccc2o1,3912,0.7,1,-17,2,8,-5
O=C(COc1cccc(F)c1)N1c2ccccc2Sc2ccccc21,7401,-1.1,17,-13,5,8,-6
CCO[C@@H]1OC(C(=O)N2CCN(C)CC2)=C[C@H](c2coc3ccccc3c2=O)[C@H]1CCCO,3440,nt,nt,-3,nt,nt,-7
CC1(C)NC(=O)N(CC(=O)Nc2nc(-c3ccc(F)cc3)cs2)C1=O,18087*,5.6,5,-15,-2,-1,1
Cc1ccc(NC(=O)[C@@H]2CCCN2S(=O)(=O)c2ccccc2C(F)(F)F)cc1S(=O)(=O)N1CCOCC1,2036,0.0,0,-16,11,5,-8
COc1ccc(NC(=S)NC(NC(=O)c2ccccc2Cl)C(Cl)(Cl)Cl)c([N+](=O)[O-])c1 (configuration not stated),9037,-1.5,-6,-8,-2,10,3
CC(C)(C)c1ccc(C(=O)CC(=O)c2cc(Cl)ccc2O)cc1,21100*,100*,98*,2,1,8,3
O=C(Nc1cccc(S(=O)(=O)N2CCCCCC2)c1)c1ccc(=O)[nH]c1,3365,4.6,5,-10,16,5,nt
NC(=O)c1cc(S(=O)(=O)N2CCCC2)ccc1OCCOc1ccccc1F,5467,6.8,0,-14,11,2,nt
Cc1ccc(NC(=O)NC2CCN(CC(=O)Nc3nccs3)CC2)cc1,9828,2.8,4,-20,15,4,6
O=C(c1ccco1)N1CCCN(Cc2cn[nH]c2-c2ccc(-c3ccccc3)cc2)CC1,4985,2.2,-10,-33,-18,-12,-1
Cc1cccc(OCC(=O)NCC(=O)NN=Cc2ccc([N+](=O)[O-])cc2)c1,nt,-1.1,-5,nt,5,-3,nt
COCC1CCCCN1C(=O)c1cccc(OC2CCN(S(C)(=O)=O)CC2)c1 (configuration not stated),4440,nt,nt,-10,nt,nt,-3
CNS(=O)(=O)c1cccc(C(=O)OCC(=O)c2ccc[nH]2)c1,3605,3.1,1,-15,9,-2,nt
Cc1cccc(N/C(N)=N/c2nc(C)cc(C)n2)c1,9627,2.7,-2,-10,-8,-10,-2
CN1CCC(OC(=O)COc2ccccc2)CC1,3665,2.9,3,-22,14,12,5
Cc1ccc([C@@H]2[C@@H]3C(=O)N(C)C(=O)[C@@H]3[C@]3(Cc4ccccc4)C(=O)N(Cc4ccccc4)CC(=O)N23)o1,3887,nt,nt,-24,nt,nt,-14
CN(C(=O)CS(=O)(=O)c1cn(CC(=O)N2CCCC2)c2ccccc12)c1ccccc1,4194,4.1,8,-11,4,-1,7
CCCNC(=O)Nc1nccs1,5968,7.2,-6,-24,17,8,1
CCOC(=O)NC(Nc1cc(C)ccn1)(C(F)(F)F)C(F)(F)F,3607,-1.5,2,5,nt,nt,-2
COc1ccc(NC(=O)c2cccc(OC(F)F)c2)cc1Cl,23117*,3.9,-12,-108,2,-2,-6
COc1ccc(-n2c(C)cc(C(=O)CCl)c2C)cc1,5011,12,7,-9,nt,nt,20
c1ccc(N2CCOCCOCCOCCOCCOCC2)cc1,4144,3.3,3,-14,5,14,-1
CCCCNC(=O)COC(=O)c1ccc(Cl)c(S(=O)(=O)N2CCCC2)c1,3976,-1.3,3,-19,0,6,-15
COc1ccc(C(=O)/C=C/Nc2ccc(S(=O)(=O)Nc3ncccn3)cc2)cc1,nt,3.8,5,nt,15,10,2
